Tgondii IFNg – inhibitors of Toxoplasma gondii growth with IFN-gamma. Toxoplasma gondii growth in IFN-gamma-treated host cells; active compounds read low; reference of the scale not given here. activity change, negative = inhibition, %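 (about 20 µM by stock and volumes)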. 69,000 tested, 3.8% active. AID 1259416;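 active = below -70%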;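 also: host cells are HeLa cells infected with Toxoplasma gondii; parasite growth read as luciferase light; one replicate is shown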
An asterisk follows results filed as active. A portion of the library, so the mix of outcomes need not match the whole.

SMILES	Tgondii IFNg
Cc1noc(C)c1CN1CCCC2(CCN(S(=O)(=O)c3cccc(F)c3)C2)C1 (stereo not drawn)	-11
COc1cc(C)c(C)cc1S(=O)(=O)NCCc1sc(-c2cccc(F)c2)nc1C	52
Cc1ccc(CN2CCC3OCCN(c4cccnc4)C3CC2)s1 (stereo not drawn)	-7
O=C(OCc1ccc(C(F)(F)F)cc1)c1cc(Cl)cc(Cl)c1	-22
Cc1ccsc1-c1nc(COc2ccc(S(C)(=O)=O)cc2)c(C)o1	1
O[C@H]1COC2C1OC[C@@H]2O (stereo partly drawn)	-1
CCOc1ccc(-c2nc(Cn3nnc(C(=O)Nc4ccc(C)cc4Cl)c3C)c(C)o2)cc1	8
Cc1[nH]c(=S)[nH]c(=O)c1CC(=O)O	-10
CO[C@@H]1CC[C@@H]2CCOc3c(C#N)cccc3C(=O)N(C)C[C@@H](c3ccccc3)CC(=O)N(C)C[C@@H]1O2	-12
Cc1cc(=O)oc2cc(CN3CCCC(Cn4ccnc4)C3)ccc12 (stereo not drawn)	-2
Cc1cc(C)n2nc(C(=O)N3CCCC4(C3)C(=O)Nc3ccccc34)cc2n1 (stereo not drawn)	-25
CCN1C(=O)CCc2cc(NC(=O)c3cncc(Br)c3)ccc21	81
Cc1ccc(S(=O)(=O)Nc2ccc3c(c2)C(=O)N(C)[C@@H]2CC[C@H](CC(=O)NCCc4ccncc4)O[C@@H]2CO3)cc1	-35
COC(=O)c1cn([C@H]2C[C@@H](C(=O)NCc3ccc(OC)cc3)N(C3CCCC3)C2)nn1	8
CN(C)CCN1CCO[C@H]2CN(C(=O)Cc3ccsc3)CC[C@@H]2C1	-1
CC1(C)CC(c2csc(N)n2)CCO1 (stereo not drawn)	4
CCc1cn[nH]c1C1CCCN(C(=O)c2nn3cc(C)cnc3c2Cl)C1 (stereo not drawn)	-12
O=S(=O)(c1cccc(Oc2ccccc2)c1)N1CCn2cncc2C1	-30
Cc1nc(COc2ccccc2Cl)[nH]c(=O)c1Cl	253
CN1CC(=O)N(c2ccccc2)CC12CCN(CC1CCOCC1)C2 (stereo not drawn)	40

Part of the list above in another layout.
Cc1cc(C)n2nc(C(=O)N3CCCC4(C3)C(=O)Nc3ccccc34)cc2n1 (stereo not drawn)
  Tgondii IFNg: -25
CCN1C(=O)CCc2cc(NC(=O)c3cncc(Br)c3)ccc21
  Tgondii IFNg: 81
Cc1ccc(S(=O)(=O)Nc2ccc3c(c2)C(=O)N(C)[C@@H]2CC[C@H](CC(=O)NCCc4ccncc4)O[C@@H]2CO3)cc1
  Tgondii IFNg: -35
COC(=O)c1cn([C@H]2C[C@@H](C(=O)NCc3ccc(OC)cc3)N(C3CCCC3)C2)nn1
  Tgondii IFNg: 8

(continued)
SMILES	Tgondii IFNg
COc1ccc(-c2nc3c(s2)CN(S(=O)(=O)c2ccc(CC(C)C)cc2)CC3)cc1	11
Cc1nc(C(C)C)nc(C)c1OCc1nc(-c2cccs2)no1	191
Cc1c(CN(C)Cc2cccc3ncccc23)c(=O)n(-c2ccccc2)n1C	-25
c1ccc(CO[C@@H]2CC[C@@H]3[C@@H]2OCCN3c2ncccn2)nc1	-4
Cc1ccc(N2C[C@H]3COC[C@@H](CC(=O)N(C)C)[C@H]3C2)nn1	12
C[C@H](CO)N1C[C@H](C)[C@@H](CN(C)C(=O)c2cnccn2)Oc2cc(C#CCC3CCCC3)ccc2S1(=O)=O	0
O=S1(=O)c2ccccc2O[C@H]2CCN(Cc3ccc(F)cc3)CC[C@H]2N1CC1CC1	-15
CC(C)(C(=O)N1CCC(c2ccc(-c3ccc(C(N)=O)cc3)cn2)CC1)c1ccccc1F	44
CCOC(=O)c1cccnc1-c1cc(OC)ccc1F	-4
Cc1cc(OC(C(=O)O)c2ccccc2)c2c(C)c(Cc3ccccc3)c(=O)oc2c1 (stereo not drawn)	8
COc1ccc(CN2CCOC3(COCCN(C(C)=O)C3)C2)cc1 (stereo not drawn)	-1
CCc1ccc(Nc2nc(C(=O)NCc3cccc(OC)c3)nc3ccccc23)cc1	-72*
O=C(Nc1ccc(-c2nc(-c3ccccc3)co2)cc1)Nc1ccc(Br)cc1F	100
CN(C)C(=O)N1CC2CCC(C1)C2C(=O)Nc1cccc(F)c1 (stereo not drawn)	-5
O=[N+]([O-])O[C@@H]1CO[C@H]2[C@@H]1OC[C@@H]2O	16
CCC(=O)N1CCOCC2(CN(Cc3ccccc3-c3ccco3)CCO2)C1 (stereo not drawn)	-45
Cc1cc2c(c(-c3ccc(Cl)cc3)c1)OC(CNC(=O)c1cc[n+]([O-])cc1)C2 (stereo not drawn)	3
CO[C@H]1CN(C)C(=O)c2ccc(NS(=O)(=O)c3c(C)noc3C)cc2OC[C@H](C)NC[C@@H]1C	104
CO[C@@H]1CC[C@H]2CCOc3c(C#N)cccc3C(=O)N(C)C[C@@H](c3ccccc3)CC(=O)N(C)C[C@H]1O2	2
CN1CCC2(C=C(C(=O)NC3CC3)c3ccccc32)CC1	-3

Retrieved by compound from above (three):
SMILES	Tgondii IFNg
Cc1nc(C(C)C)nc(C)c1OCc1nc(-c2cccs2)no1	191
c1ccc(CO[C@@H]2CC[C@@H]3[C@@H]2OCCN3c2ncccn2)nc1	-4
O=S1(=O)c2ccccc2O[C@H]2CCN(Cc3ccc(F)cc3)CC[C@H]2N1CC1CC1	-15

The list continues.
SMILES	Tgondii IFNg
Cc1cnccc1CN(C)C(=O)c1ccc2cccnc2n1	3
Cc1ccc(NC(=O)c2cc(-c3cnc(-c4ccccc4)nc3)cn2CC2CC2)cn1	-59
c1ccc(-c2nc(-c3cccnc3)n[nH]2)nc1	137
c1ccc(CSc2nnnn2-c2ccc3c(c2)OCO3)nc1	26
COc1ccc2c3c([nH]c2c1)[C@H](CO)N(C(=O)CC1CC1)CC31CCN(C(=O)c2ccccc2)CC1	-35
c1ccc(CCCN2CCC(c3cccc(-n4ccnc4)n3)CC2)cc1	18
COc1ccc(CN2CCC3(CCC(CNC(=O)c4cccnc4)O3)CC2)c2ccccc12 (stereo not drawn)	4
CN(C)S(=O)(=O)N1CCC2(CC1)CN(C(=O)c1cccn1C)Cc1ccccc12	4
c1ccc(CN2CCC3(CC(n4cnnc4)CO3)C2)cc1 (stereo not drawn)	-2
CN1CCN(Cc2nc3ccccc3n2C)CC(Cc2cccc(-c3cccnc3)c2)C1=O (stereo not drawn)	-10
CC(=O)CC1(O)C(=O)N(CCOc2ccccc2)c2ccccc21 (stereo not drawn)	-3
Cc1cccc(C(=O)NCCc2csc(-c3ccccc3)n2)c1	152
Cc1cc(C(=O)N2CCC(CCn3ccnc3C)CC2)c2ccccc2n1	9
Cc1ccc(CN2CC[C@@H]3[C@H]2CCN3c2nncs2)o1	-25
Cc1nc(-c2ccc(C(=O)N3CCC(C)CC3)cc2)cs1	140
Cc1nc(-c2ccc(F)cc2)sc1CCNC(=O)C(=O)Nc1ccc(F)c(Cl)c1	27
CC(C)CN1C(=O)N(C)C(=O)C12CCN(Cc1cccc(-c3ccco3)c1)CC2	11
Cc1cc(C#N)c2c(c1)CCCCCCCCCC2	10
CCCNC(=O)C1CC(=O)N(CCc2c[nH]c3ccc(F)cc23)C1 (stereo not drawn)	217
CCCN(CCOC)C(=O)C1CC2(CO1)c1ccccc1CN2CC1CC1 (stereo not drawn)	9
O=C(Nc1cccc(F)c1)c1ccnn1-c1ccc2ccccn12	10
Cc1ccc(NC(=O)CC(=O)N(C)Cc2nonc2C)c(C)c1	44
Cc1nnnn1-c1cccc(NC(=O)CN(C)C2CCS(=O)(=O)C2)c1 (stereo not drawn)	4
COc1cc(N2CCc3ncnc(N(C)C)c3CC2)ncn1	-38
Cc1nc(-c2ccc(NC(=O)c3ccc(C(C)N4CCOCC4)o3)cc2)cs1 (stereo not drawn)	115
Cc1nc(-c2cc(C(=O)NCCN(C)C)c3ccccn23)cn1Cc1cccnc1	-3
CO[C@H]1CC[C@@H]2[C@H]1OCCN2C(=O)/C=C/c1cccs1	8
CC1CCN(C(c2ccc(Cl)cc2)c2nnnn2Cc2ccc(F)cc2)CC1 (stereo not drawn)	-43
C[C@@H]1CN([C@@H](C)CO)C(=O)c2cc(NC(=O)C3CC3)ccc2O[C@@H]1CN(C)S(=O)(=O)c1ccccc1	-30
O=C(c1cccc(Cl)c1F)N1CCOC2(CNCCOC2)C1 (stereo not drawn)	2
COCCNC(=O)C[C@H]1CC[C@H]2[C@@H](COC[C@H](O)CN2Cc2ccc(Cl)c(Cl)c2)O1	16
O=C1c2ccc(-c3ccccc3)cc2C(=O)N1C1c2ccccc2Oc2ccccc21	6
COCC1CN(C(=O)CS(C)(=O)=O)Cc2nnn(CC3CC3)c21 (stereo not drawn)	0
CO[C@@H](CN(C)Cc1cc(F)ccc1F)[C@H](C)CN([C@H](C)CO)S(=O)(=O)c1ccc(C)cc1	-47
CC(=O)Nc1ccc(S(=O)(=O)n2cnc(C)c2)cc1	-7
N#CCC(=O)N1CCCn2c(nnc2Cn2cccn2)C1	-1
COc1ccc2c3c([nH]c2c1)[C@H](CO)NCC31CCN(C(=O)c2ccccc2)CC1	87
COc1ccc(C#Cc2ccc([C@H]3[C@@H](CO)N4C(=O)CN(C(=O)NC(C)C)C[C@@H]34)cc2)cc1	-33
CN1CCC2(CCN(C(=O)CCOc3ccccc3)CC2)C1	13
CN(C)CC1(O)CCCN(Cc2ccccc2OCC(=O)O)CC1 (stereo not drawn)	-13
CCOc1ccccc1C(=O)N1CCC2(CC1)NC(=O)c1cc(C)ccc1N2CC	67
O=C(C[C@@H]1CC[C@H](NS(=O)(=O)c2ccc(F)cc2)[C@@H](CO)O1)N1CCN(c2ccccc2)CC1	-41
Cc1ccc(C)c(NC(=O)CC(=O)NCCN(C)S(C)(=O)=O)c1	0
O=C(Nc1ccc2nc(NC(=O)c3ccco3)sc2c1)c1cccnc1	63
CNC[C@@H]1Oc2ccc(NC(=O)NC3CCCCC3)cc2CC(=O)N([C@H](C)CO)C[C@H]1C	6
Cc1oc(C2CCN(C(=O)Nc3ccc(F)cc3)CC2)nc1C(=O)N(C)C	21
CN(C)C(=O)C[C@H]1CC[C@@H]2[C@H](COC[C@H](O)CN2C(=O)c2ccncc2)O1	-23
Cn1ccn2ncc(C(=O)NCCSc3ccccn3)c12	6
Cc1nn(CC(C)C(=O)Nc2ncc(Cc3ccccc3F)s2)c(C)c1C (stereo not drawn)	-45
CS(=O)(=O)N1CCCc2cc(C(=O)O)ccc21	-28
CCCCCCCC1CCC/C1=N\OC(=O)c1cccs1 (stereo not drawn)	-50
Cc1cc(Cc2ccc(NC(=O)C(F)(F)F)c(C)c2)ccc1NC(=O)C(F)(F)F	-17
CC(C)(C)c1nc2ccccc2c2nnc(SCc3ccccn3)n12	-79*
C[C@@H]1CN([C@H](C)CO)C(=O)c2cc(-c3ccncc3)cnc2O[C@H]1CN(C)C(=O)CN1CCOCC1	22
Cc1ccccc1-c1noc(-c2cn(CC3CCCO3)nn2)n1 (stereo not drawn)	167
CS(=O)(=O)c1cccc(C(=O)Oc2ccccc2)c1	-32
CC(=O)NCc1noc2c1CN(C(=O)c1cnccn1)CC2	6
CN(Cc1cn[nH]c1-c1ccccc1)C(=O)C(=O)c1ccco1	5
Cc1cccc(-c2c(-c3ccccc3)ncn2CCCn2ccnc2)c1	-18
Cc1cccc(-c2nnc(-c3nc(NCc4ccccc4C)c4ccccc4n3)o2)c1	-91*

A different layout for some results above.
> Cc1ccc(S(=O)(=O)Nc2ccc3c(c2)C(=O)N(C)[C@@H]2CC[C@H](CC(=O)NCCc4ccncc4)O[C@@H]2CO3)cc1
  Tgondii IFNg: -35

> COC(=O)c1cn([C@H]2C[C@@H](C(=O)NCc3ccc(OC)cc3)N(C3CCCC3)C2)nn1
  Tgondii IFNg: 8

> CN(C)CCN1CCO[C@H]2CN(C(=O)Cc3ccsc3)CC[C@@H]2C1
  Tgondii IFNg: -1

> CC1(C)CC(c2csc(N)n2)CCO1 (stereo not drawn)
  Tgondii IFNg: 4

(more compounds)
SMILES	Tgondii IFNg
Cc1cccc(NCCNc2cccc(C)c2)c1	-32
COc1ccc(CCN=CC2=C(O)CC(C)(C)CC2=O)cc1	-21
CSc1nc(-c2cccnc2)nc(-c2ccc(OC(F)(F)F)cc2)c1C#N	-38
N#Cc1cccc(-c2ccc3c(c2)[C@@H]2[C@@H](CCN2S(=O)(=O)c2ccc(F)cc2)[C@H](CO)N3)c1	-47
COC[C@H]1CN(C)C[C@@]12CCN(C(=O)COc1ccccc1)C2	2
C[C@@H]1CCCCO[C@H](CN(C)S(=O)(=O)c2cn(C)cn2)[C@H](C)CN([C@@H](C)CO)C(=O)c2cc(N(C)C)ccc2O1	315
COCCN1C(=O)CCC2C1CCN2C(=O)Cc1ccc(F)cc1 (stereo not drawn)	3
O=C1CC(c2cccc(Br)c2)c2cc3c(cc2N1)CCC3 (stereo not drawn)	-83*
CN1C(=O)N(Cc2cccnc2)C(=O)C12CCN(Cc1cccc(Oc3ccc(Cl)cc3)c1)CC2	-32
Cc1ccc(-c2ccccc2NC(=O)C2CC2)cc1F	1
CC(=O)C1=C(O)C(=O)N(CC(=O)O)C1c1ccccc1Cl (stereo not drawn)	-16
CCS(=O)(=O)N(C)C[C@H]1[C@@H](c2ccccc2)[C@@H](CO)N1C(=O)CN(C)C	-13
CCOCC1CN(CC2CCOCC2)Cc2cn(C)nc21 (stereo not drawn)	-3
CSc1nc2c(C)csc2c(=O)n1C	113
O=C(Nc1ccc(F)cc1)N1[C@H](CO)[C@@H]2c3ccccc3NC[C@@H]21	0
Cc1ccc(S(=O)(=O)NCCc2sc(-c3cccc(F)c3)nc2C)c(C)c1	82
CCOC(=O)C1(Cc2cccc(Cl)c2)CCCN(C(=O)Cc2cnc3ncnn3c2)C1 (stereo not drawn)	-36
Cc1occc1C(=O)N1CCC2(CCC(=O)N2Cc2cccnc2)CC1	-11
O=C(c1ccccc1OCc1ccccc1)N1C[C@H]2C[C@H](O)[C@@H](O)C[C@H]2C1	-3
CO[C@@H](CN(C)C(=O)Nc1ccc(Cl)cc1)[C@H](C)CN(Cc1ccccc1Cl)[C@H](C)CO	86
COCC(=O)N1C[C@@H]2[C@H](c3ccccc31)[C@H](CO)N2Cc1cc(F)ccc1F	-3

Source: PubChem (Broad Institute)
